# MT1-MMP act inh = MT1-MMP (human) activation inhibition | P50281 | HT1080 RFP-PRO-GFP cells, GFP/RFP ratio fluorescence, overnight; percent of plate control window, DMSO zero | GFP/RFP ratio change, % at 20 µM | hit rate 0.061% among 360,000;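 active = GFP/RFP ratio change of at least 30% with cell ATP level not reduced by more than half and red fluorescence within 50% of control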; also: strong numbers were not always called active
#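 Assay system: RFP-PRO-GFP reporter HT1080 cells; read-out basis: GFP/RFP fluorescence ratio; benchmarks: DMSO wells and RFP-L50D-GFP cells; doses: 20 µM single dose, 1% DMSO; schedule: overnight cell settling, then overnight compound exposure, 37 °C, 5% CO2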
# PABP polyA inh = PABP-poly(A) binding inhibition; AID 2014; PABP-poly(A) RNA binding, fluorescence polarization; P11940; inhibition, % at 35 µM; hit rate 1% among 290,000;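 active = 50% or more with normal probe brightness, or confirmed in later tests; inconclusive = above 50% with abnormal brightness, or retests that disagree; inactive = below 50% or failed in later tests; about a fifth of its hits are not listed in these tables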;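 also: calls also rest on retests at 20 µM and on dose response follow-up; controls were probe without protein and protein plus probe with vehicle; some compounds called inactive have numbers as strong as hits; many hits fall short of the cut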
# Target sequence (P11940 whole entry, looked up): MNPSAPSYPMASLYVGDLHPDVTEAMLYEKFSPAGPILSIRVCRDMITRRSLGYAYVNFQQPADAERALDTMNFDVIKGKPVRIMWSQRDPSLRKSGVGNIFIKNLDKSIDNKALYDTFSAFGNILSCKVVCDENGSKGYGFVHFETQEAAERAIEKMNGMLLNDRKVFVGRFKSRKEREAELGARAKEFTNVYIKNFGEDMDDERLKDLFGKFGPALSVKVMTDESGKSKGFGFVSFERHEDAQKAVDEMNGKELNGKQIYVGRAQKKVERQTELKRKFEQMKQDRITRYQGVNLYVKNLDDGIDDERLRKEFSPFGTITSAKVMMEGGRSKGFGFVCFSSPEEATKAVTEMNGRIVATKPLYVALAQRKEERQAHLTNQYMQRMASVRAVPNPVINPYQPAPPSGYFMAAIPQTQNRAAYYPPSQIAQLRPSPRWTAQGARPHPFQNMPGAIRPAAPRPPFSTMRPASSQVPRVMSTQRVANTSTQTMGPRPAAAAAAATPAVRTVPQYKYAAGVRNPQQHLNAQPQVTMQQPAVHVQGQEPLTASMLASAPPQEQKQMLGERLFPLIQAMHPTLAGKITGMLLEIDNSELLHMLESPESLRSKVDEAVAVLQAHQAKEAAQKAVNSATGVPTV
# eIF4H FP inh = inhibitors of RNA binding by human eIF4H. Q15056. eIF4H fluorescence polarization binding assay. inhibition, % at 35 µM. hit rate 0.94% among 290,000. AID 2012;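 active = 50% or more with normal probe brightness, or confirmed in later tests; inconclusive = above 50% with abnormal brightness, or retests that disagree; inactive = below 50% or failed in later tests; about a fifth of its hits are not listed in these tables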;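 also: calls also rest on retests at 20 µM and on dose response follow-up; 0% = protein and probe with vehicle and 100% = probe without protein; strong numbers were not always called active; many hits fall short of the cut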
# Env fusion inh = blocks HIV Env-driven cell-cell fusion. HeLa-JRFL Env/CEM21 cell fusion, luciferase. inhibition, % at 12.3 µM. hit rate 1.1% among 360,000. AID 651610;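 active = mean replicate inhibition score of at least 50 and every replicate individually at or above 50; inconclusive = only one of the two criteria met; inactive = mean below 50 and not all replicates reaching 50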;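 also: 0% = plate neutral controls and 100% = maraviroc near 300 nM; one replicate is shown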
# CSC inhib = cancer stem cell inhibition; cancer stem cell-like cells viability, luminescence; inhibition, % at 7.5 µM; hit rate 1.1% among 300,000;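 active = mean at 75% or more and at least half the replicates too; inconclusive = mean and replicates disagree; tested in HMLE shEcad cells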;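 also: 0% = median of negative and 100% = median of positive control wells; the first replicate is given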
# UUG fidelity = modulators of start codon recognition fidelity in yeast; AID 602363; hit rate 0.13% among 350,000; S. cerevisiae UUG-firefly luciferase reporter, luminescence/redox ratio; activity score, % at 18.7 µM;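 active = replicate mean at a twofold rise or more, about +100% in these data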;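 also: firefly luciferase made from a UUG start codon reports start codon fidelity; reporter light over untreated wells divided by growth signal over untreated wells; some hits fall short of that in this replicate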
# Rce1 inhib = yeast Ras-converting enzyme inhibition; calls only; yeast membranes, quenched prenylated peptide cleavage fluorescence; Q03530; hit rate 0.27% among 290,000;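 active = fall in fluorescence gain of 50% or more versus controls, with final raw signal at or below 3038400; inconclusive = same 50% fall but final raw signal above 3038400; inactive = fall in fluorescence gain under 50%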;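 also: plate controls were neutral control wells for no effect and wells lacking membranes for full effect; tested at 10 µM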
# eIF4H FP inh retest = second read-out of eIF4H FP inh, no call of its own (marks repeat the call); inhibition, %; compound at 20 µM; confirmation average;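 mean of two retest wells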
# PABP polyA inh retest = second read-out of PABP polyA inh, no call of its own (marks repeat the call); inhibition, %; compound at 20 µM; confirmation repeats;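 mean of two retest wells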
# MT1-MMP act inh RFP = further read-out of MT1-MMP act inh, marked with its call; RFP signal change, %; measured here: RFP expression control read;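 0 = vehicle wells; hits needed this value within 50% of zero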
# Starred values were filed as active, the others as inactive; i = inactive; ? = inconclusive; nt = no result given; + = active, no number. The order is random; 2.9% or so of the library scored in one or more.
SMILES,MT1-MMP act inh,MT1-MMP act inh RFP,PABP polyA inh,eIF4H FP inh,Env fusion inh,CSC inhib,UUG fidelity,Rce1 inhib,others
O=C(CSc1ncnc2sc3c(c12)CCC3)NCC1CCCO1 (configuration not stated),-1.5,-2.9,-7.3,-3.7,-1.0,0.3,-0.9,i,
CC(NC(=O)COC(=O)c1ccc(CO)cc1)C1CC2CCC1C2 (configuration not stated),-2.8,1.2,nt,nt,6.3,nt,-8.4,nt,
Cc1ccccc1OCC(=O)NNC(=O)CN1C(=O)c2ccccc2C1=O,1.4,4.6,6.9,-2.1,-15.6,-5.3,-2.4,i,
Clc1cccc(N2CCN(CCNc3nc4ccccc4n4cnnc34)CC2)c1,2.1,-8.5,-7.4,0.7,nt,-0.2,-10.0,i,
CC12CN(C(=O)c3cccc([N+](=O)[O-])c3)C3(C#N)CC1CCC23C (configuration not stated),3.2,4.8,7.3,2.6,-40.9,-13.5,0.5,i,
Cc1ccc(NCc2nnc3n2CCCCC3)cc1,5.5,2.6,-11.6,-12.5,nt,nt,-12.6,i,
O=C(COc1ccc(S(=O)(=O)NCc2ccccc2)cc1)NCC1CCCO1 (configuration not stated),9.2,4.3,-7.7,0.2,nt,nt,-17.0,i,
Cc1cc(C(=O)COc2cccnc2[N+](=O)[O-])c(C)n1Cc1ccco1,-6.0,-9.8,-11.5,?,-2.7,41.6,-14.9,i,
CCOc1ccc2ccccc2c1/C=N/NC(=O)CNC(=O)c1ccccc1O,-2.8,-0.5,7.3,1.1,15.6,-7.3,-15.6,i,
O=C(Nc1ccc(N2CCN(C(=O)c3ccccc3)CC2)cc1)c1cccnc1,-4.2,-3.2,-8.1,-9.4,9.2,-10.1,21.9,i,
COC/C=C/C1=CC2=CC(=O)C(C)(OC(=O)c3cnc4ccccc4n3)C(=O)C2=CN1CCOC (configuration not stated),4.3,5.6,nt,nt,-32.7,2.3,3.9,i,
CSCCC(c1nnnn1Cc1ccccc1)N1CCN(C/C=C/c2ccccc2)CC1 (configuration not stated),3.5,-6.5,nt,nt,-30.4,nt,-9.4,nt,
COC(CNC(=O)C1CCCCC1C(=O)O)OC (configuration not stated),8.4,7.2,7.9,2.3,-1.8,-5.4,-8.5,i,
Cc1oc(-c2ccccc2)cc1C(=O)Nc1cccc2ccccc12,9.5,10.2,-5.9,-9.7,-40.3,-1.3,-15.1,i,
Cc1ccc(S(=O)(=O)CCC(=O)OCc2ccc(S(=O)(=O)C(C)C)cc2)cc1,0.6,-0.9,-5.6,-9.7,22.2,-4.6,nt,i,
Fc1ccc(-c2csc3[n+]2CCS3)cc1,-2.3,1.9,13.9,6.8,-4.6,-2.9,-10.2,i,
Cn1c(=O)[nH]c(=O)c2c1nc1n2CC(COc2ccc3ccccc3c2)O1 (configuration not stated),1.1,-2.5,-1.7,-7.5,0.3,-6.3,nt,i,
COc1ccc(-c2cc(C3CCN(c4ccc(C(C)=O)cc4[N+](=O)[O-])CC3)[nH]n2)cc1,-1.2,-13.9,4.0,9.8,-43.9,75.9*,-12.0,i,
CC(C)c1ccc(OC(=O)c2ccc3c(=O)n4c(nc3c2)CCC4)cc1,-2.1,-0.1,nt,nt,9.0,-5.7,-13.6,i,
c1ccc(CN2CCN(c3ncnc4c3[nH]c3ccccc34)CC2)cc1,-7.0,-22.9,2.5,5.3,nt,nt,-7.3,i,

# Molecules above with an NH in an aromatic ring:
SMILES,MT1-MMP act inh,MT1-MMP act inh RFP,PABP polyA inh,eIF4H FP inh,Env fusion inh,CSC inhib,UUG fidelity,Rce1 inhib,others
Cn1c(=O)[nH]c(=O)c2c1nc1n2CC(COc2ccc3ccccc3c2)O1 (configuration not stated),1.1,-2.5,-1.7,-7.5,0.3,-6.3,nt,i,
COc1ccc(-c2cc(C3CCN(c4ccc(C(C)=O)cc4[N+](=O)[O-])CC3)[nH]n2)cc1,-1.2,-13.9,4.0,9.8,-43.9,75.9*,-12.0,i,
c1ccc(CN2CCN(c3ncnc4c3[nH]c3ccccc34)CC2)cc1,-7.0,-22.9,2.5,5.3,nt,nt,-7.3,i,

# (continued)
SMILES,MT1-MMP act inh,MT1-MMP act inh RFP,PABP polyA inh,eIF4H FP inh,Env fusion inh,CSC inhib,UUG fidelity,Rce1 inhib,others
O=C(NC1CCN(C(=S)Nc2ccc(F)cc2)CC1)c1ccco1,-1.0,-3.4,1.1,-2.3,36.5,5.0,-12.3,i,
Cc1c[n+]([O-])cc(C)c1Oc1ccccc1,7.8,4.1,nt,nt,4.7,-0.2,-16.1,i,
Nc1nc(-c2ccc(Br)cc2)cc(C(F)(F)F)n1,-8.9,-16.2,5.1,1.6,-182.3,-16.2,-11.7,i,
Cc1cc(C)cc(N(CCC#N)C(=O)COC(=O)c2ccccc2SCC(=O)N2CCCC2)c1,1.0,-4.9,9.7,-4.7,1.9,20.7,-8.9,i,
O=C1CC2(CCCC2)Oc2ccccc21,7.3,-0.2,nt,nt,-15.2,-0.4,-16.7,i,
O=c1c(-c2ccco2)[n+]([O-])c2ccccc2n1OCc1c(F)cccc1F,-2.8,1.8,14.0,23.4,7.5,-3.5,-0.2,i,
O=C(CCN1C(=O)[C@H]2CC=CC[C@H]2C1=O)NCc1nc(-c2ccccc2)no1,-2.0,-4.9,15.4,-11.3,-5.3,5.4,-1.8,i,
CCOC(=O)c1sc(NC(=O)CN2CCCC2)c(C(=O)OCC)c1C,-2.9,-2.3,2.3,3.1,nt,-3.4,nt,i,
CSc1cccc(NC(=O)C2C3C=CC4(O3)C2C(=O)N(CCCN2CCOCC2)C4C(=O)NC2CCCCC2)c1 (configuration not stated),-2.3,1.1,12.8,-10.2,-6.1,-15.0,-2.9,nt,
O=C(Cc1ccccc1F)Nc1nc(-c2cccs2)cs1,0.0,-8.8,-9.4,-6.2,4.7,13.2,0.3,i,
O=C(Nc1nccs1)c1ccc(-c2ccc([N+](=O)[O-])cc2)o1,-4.4,5.7,?,?,-76.4,-1.0,-16.9,i,
O=C(NCc1ccccc1)Nc1cccn(Cc2ccc(Cl)cc2)c1=O,0.3,-4.5,-13.8,-4.1,?,nt,nt,i,
C/C(=N\NC(=S)Nc1c(C)cccc1C)c1ccc(O)cc1,4.5,2.0,-11.6,1.6,-6.1,-4.9,-24.3,i,
CC1C=CC(C)C(C(=O)O)C1C(=O)O (configuration not stated),0.8,0.9,38.2,94.0,-53.9,-7.7,-4.9,i,eIF4H FP inh retest=6.3;PABP polyA inh retest=0.2
CCn1nnc2c(=O)oc3ccccc3c21,0.2,-3.3,-11.1,4.5,6.3,-6.4,nt,i,
CN(C)N1C(N)=C(C#N)C(c2cccnc2)C2=C1CCCC2=O (configuration not stated),-11.0,-3.4,4.9,17.0,nt,-6.2,-3.4,i,
Cc1ccc2nc(-c3ccc(NC(=O)Cc4cccs4)cc3)[nH]c2c1,9.0,1.4,-0.8,-8.4,nt,17.9,-18.1,i,
N#Cc1ccc(OCC(=O)N2CCN(S(=O)(=O)c3cccc(Cl)c3)CC2)cc1,-0.8,-4.9,nt,nt,0.4,nt,4.5,nt,
CC(OC(=O)c1nccnc1N)C(=O)Nc1ccc(S(=O)(=O)N2CCCC2)cc1 (configuration not stated),0.3,3.0,nt,nt,-4.9,14.7,nt,i,
CN(C)CCNC(=O)C(=O)NCC1OCCN1S(=O)(=O)c1ccc(F)cc1 (configuration not stated),0.3,3.0,nt,nt,-19.2,nt,-22.6,nt,
O=C(Nc1cccc(-c2cc3ccccc3oc2=O)c1)c1ccc(Br)o1,-4.1,-2.5,4.9,-4.1,nt,-9.5,-2.5,i,
COc1cc(C(=O)CSc2nnc(-c3ccc(O)cc3)n2CC2CCCO2)ccc1NC(C)=O (configuration not stated),1.9,1.3,16.2,11.2,-48.2,-6.6,1.1,i,
Cc1nnc(C)n1/N=C/c1ccc(C(=O)O)cc1,6.2,3.3,15.0,10.0,-78.2,-13.8,-22.3,i,
COc1ccc(-c2cc(C3CC3)nc(SCC(=O)c3cccs3)c2C#N)cc1,-21.0,-8.0,-13.6,18.0,nt,65.7,-14.5,i,
CC1Oc2ccccc2C=C1/C=N/NC(=O)[C@@H](C)NC(=O)OC(C)(C)C (some centres not stated),2.9,-7.8,-6.5,-10.6,6.8,-9.2,nt,+,
O=[N+]([O-])c1ccc(Cc2ccccn2)c([N+](=O)[O-])c1,-1.2,0.2,nt,nt,14.8,-13.2,nt,i,
C[C@H]1CN=C(Nc2ccccc2)N1CCC1CCCC1,7.7,1.6,-10.7,3.2,19.6,11.8,-21.1,i,
O=C(NCc1ccc(F)cc1Cl)C1CC(=O)N(C2CCCCCCC2)C1 (configuration not stated),-1.5,-1.1,nt,nt,6.9,-11.4,4.3,i,
CC1CCCN(CCOc2cccc(Oc3ccccc3)c2)C1 (configuration not stated),3.3,-1.8,7.4,25.1,16.2,nt,-15.2,i,
O=C(c1cc([N+](=O)[O-])ccc1N1CCCC1)N1CCCC1,5.9,-1.8,-3.5,-8.5,-2.9,nt,nt,i,
O=C(C1=C(O)C(=O)N(Cc2ccco2)C1c1cccc([N+](=O)[O-])c1)c1ccco1 (configuration not stated),0.7,4.0,0.5,-6.2,2.1,-9.5,-22.1,i,
COc1ccc(CN(Cc2ccccn2)C(=O)CN2C(=O)C(C)Oc3ccccc32)cc1 (configuration not stated),10.2,3.1,7.0,-5.2,24.2,-11.2,-9.6,i,
Cc1c(Cl)cccc1NC(=O)CSc1nc2c(c(=O)[nH]1)CCCC2,nt,nt,4.8,5.9,nt,17.8,nt,i,
COc1ccc(S(=O)(=O)N2CCC(=O)N2)cc1,2.1,-5.0,-5.0,-10.5,-25.3,-10.8,-18.1,nt,

# In the list so far, 5 contain a Cl atom.
SMILES,MT1-MMP act inh,MT1-MMP act inh RFP,PABP polyA inh,eIF4H FP inh,Env fusion inh,CSC inhib,UUG fidelity,Rce1 inhib,others
Clc1cccc(N2CCN(CCNc3nc4ccccc4n4cnnc34)CC2)c1,2.1,-8.5,-7.4,0.7,nt,-0.2,-10.0,i,
O=C(NCc1ccccc1)Nc1cccn(Cc2ccc(Cl)cc2)c1=O,0.3,-4.5,-13.8,-4.1,?,nt,nt,i,
N#Cc1ccc(OCC(=O)N2CCN(S(=O)(=O)c3cccc(Cl)c3)CC2)cc1,-0.8,-4.9,nt,nt,0.4,nt,4.5,nt,
O=C(NCc1ccc(F)cc1Cl)C1CC(=O)N(C2CCCCCCC2)C1 (configuration not stated),-1.5,-1.1,nt,nt,6.9,-11.4,4.3,i,
Cc1c(Cl)cccc1NC(=O)CSc1nc2c(c(=O)[nH]1)CCCC2,nt,nt,4.8,5.9,nt,17.8,nt,i,
